Screening results (PubChem)
NPR1 antag: Natriuretic polypeptide receptor (hNpr1) antagonism - Primary qHTS | Atrial natriuretic peptide receptor 1 (Homo sapiens), P16066 | HEK293 hNpr1 GloSensor cGMP, ANP-stimulated luminescence | Potency, µM (titrated, usually from 46.3 µM), for inactives: at the highest dose activity change, negative = inhibition, most hits filed as inhibitors | 76,000 tested, 1.6% active; active = well fitted inhibition curve with a large enough effect; inconclusive = small, poorly fitted or top-dose-only effect; inactive = no such curve, though single readings can be large or run the other way;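 note: nearly all actives have a fitted effect of over 60% in size; nearly all hits also lower the signal before the agonist is added; a reference antagonist and vehicle were the controls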
Target sequence (P16066 whole entry, looked up): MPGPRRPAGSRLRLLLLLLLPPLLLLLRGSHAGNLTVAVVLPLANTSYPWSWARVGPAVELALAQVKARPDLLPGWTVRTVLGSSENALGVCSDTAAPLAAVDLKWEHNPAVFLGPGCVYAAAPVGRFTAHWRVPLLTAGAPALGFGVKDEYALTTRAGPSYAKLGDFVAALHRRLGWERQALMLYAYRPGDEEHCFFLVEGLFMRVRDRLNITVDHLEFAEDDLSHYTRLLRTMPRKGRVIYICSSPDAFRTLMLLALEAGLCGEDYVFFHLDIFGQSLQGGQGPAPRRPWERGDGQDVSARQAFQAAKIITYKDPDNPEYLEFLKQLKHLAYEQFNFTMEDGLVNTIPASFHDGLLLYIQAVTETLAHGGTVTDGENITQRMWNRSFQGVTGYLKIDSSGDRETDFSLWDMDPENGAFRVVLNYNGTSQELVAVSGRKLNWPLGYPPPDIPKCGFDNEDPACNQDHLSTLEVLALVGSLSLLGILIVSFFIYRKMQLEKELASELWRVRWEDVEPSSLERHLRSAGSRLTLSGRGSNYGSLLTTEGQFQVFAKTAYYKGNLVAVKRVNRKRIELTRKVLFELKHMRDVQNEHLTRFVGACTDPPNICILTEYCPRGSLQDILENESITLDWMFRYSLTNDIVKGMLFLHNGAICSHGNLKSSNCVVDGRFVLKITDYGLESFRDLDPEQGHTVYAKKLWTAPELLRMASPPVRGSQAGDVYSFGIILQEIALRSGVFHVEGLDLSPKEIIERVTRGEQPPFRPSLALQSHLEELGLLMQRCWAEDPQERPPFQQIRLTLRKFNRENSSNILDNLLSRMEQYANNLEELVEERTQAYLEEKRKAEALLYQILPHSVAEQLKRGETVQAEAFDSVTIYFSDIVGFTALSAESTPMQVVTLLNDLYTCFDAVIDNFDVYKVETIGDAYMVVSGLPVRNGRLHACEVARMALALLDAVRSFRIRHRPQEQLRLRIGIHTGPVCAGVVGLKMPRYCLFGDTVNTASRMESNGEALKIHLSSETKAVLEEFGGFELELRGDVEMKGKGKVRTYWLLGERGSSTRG
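Compound pre-incubated 30 min at room temperature on GloSensor-loaded HEK293 cells stably carrying hNpr1 and the pGS-40F cGMP biosensor. Stimulation uses hNppA at 0.1 nM final; luminescence is taken at baseline and 20 min post-agonist.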
An asterisk follows results filed as active; ? = inconclusive; [ ] = dose if it differs, or a comment. % is set by controls: 0 for no effect and ±100 for the full control effect; potency is the fitted concentration of half-maximal effect. These rows are one share of the data. The share of hits here may be higher or lower than overall.

| structure | NPR1 antag |
| --- | --- |
| O=C(NC1CC1)C1COC2(CCN(C(=O)c3cccc(Cl)c3)CC2)N1C(=O)c1ccc(F)cc1 (configuration not stated) | -2% |
| COCCN1C(=O)CCC2(C(=O)Nc3cc(OC)cc(OC)c3)CCCC=C12 (configuration not stated) | -1% |
| Cn1ccc(NC(=O)C2(C)CCCc3cnc(NCc4ccccc4)nc32)n1 (configuration not stated) | -5%[70.6 µM] |
| COCc1cc(C[C@H]2CNCC[C@H]2CC(=O)NCc2ccc(OC)c(OC)c2)no1 | 1%[70.6 µM] |
| CCn1ccc(C(=O)N2CCC(Oc3ccccc3)C2)n1 (configuration not stated) | 6% |
| Cc1ccc(CNC(=O)C2(c3ccc(NC(=O)C(C)C)cc3)CCC2)cc1C | 3% |
| O=C1CCN(Cc2ccccn2)CCCC(c2nc(-c3cnccn3)no2)CCN1 (configuration not stated) | 0% |
| Cn1ccc2c(-c3cc(NCCO)nc(N)n3)ccnc21 | -3% |
| COC[C@@H]1CNC[C@H]1c1nc(C2CC2)no1 | 0% |
| CCOC(=O)c1ccccc1NC(=O)Cn1c(N2CCc3ccccc3C2)nc(C)cc1=O | 3% |
| O=C(NCc1ccc(N2CCCCC2)cc1)c1cccc2c1CCN2C(=O)C1CC1 | -1% |
| CNC(=O)[C@@H]1CN(Cc2ccc(F)c(F)c2)C[C@H]1CO | 0% |
| COc1ccc(F)c(CN2CCCC(O)(CN(C)Cc3ccccc3)C2=O)c1 (configuration not stated) | -3% |
| COc1cccc(C(=O)N2CC[C@@H]3CN(S(C)(=O)=O)[C@@H]3C2)c1C | 3% |
| CC(C)NC(=O)N[C@H]1CCN(C(=O)c2cccn2C)[C@@H]1C(=O)N[C@H](Cc1c[nH]c2ccccc12)C(N)=O | -8% |
| Cc1ccc(-c2nnc(C3CN(C(=O)CC(C)C)CC34CCOCC4)o2)cc1 (configuration not stated) | 2% |
| Cc1ccc(C(=O)N2C[C@H](c3nc(-c4ccncc4)no3)[C@@H](C)C2)c(C)c1 | ? |
| CN1c2cc(C(=O)Nc3cccc(C(F)(F)F)c3)ccc2C(=O)N2CCCCC21 (configuration not stated) | 4% |
| O=C(NC1CCCN(c2cc(-c3ccccc3)[nH]n2)C1)c1ccc2nc[nH]c2c1 (configuration not stated) | 2% |
| Cc1nc2c(c(-c3ccc(Cl)cc3)n1)CCN(C(=O)Cc1ccc(F)cc1)CC2 | 1% |
| CN(C)CCNC(=O)c1ccnc(-c2nnc3ccc(Nc4ccccc4)nn23)c1 | 0%[70.6 µM] |
| Cc1ccc2c(c1)nc1n2[C@@H](CNC(=O)c2cccnc2)COC1 | 1%[70.6 µM] |
| CCn1c(C)cc(C)c(C(=O)NCC2CCN(c3cnn(C)c(=O)c3)C2)c1=O (configuration not stated) | 17% |
| COc1cc(NC(=O)CN2C(=O)NC3(CCS(=O)(=O)CC3)C2=O)cc(OC)c1 | -15% |
| CCN(CC)C(=O)[C@@H]1CCC[C@@H](NC(=O)c2cc(C)on2)CN(C)C(=O)C1 | -4%[70.6 µM] |
| CCOc1ccc(C(=O)N2CCCN(S(C)(=O)=O)c3ccccc32)cc1OCC | 0% |
| O=C([C@@H]1C[C@H](F)CN1S(=O)(=O)c1cccc(Br)c1)N1CCCCC1 | 3% |
| N#Cc1cccc(C(=O)Nc2ccc([C@@H](O)[C@H]3COCC(=O)N3Cc3ccc(F)cc3)cc2)c1 | 0% |
| Cc1ccc(S(N)(=O)=O)cc1C(=O)N1CCN(c2ccccc2)C(=O)C1 | 1% |
| COCc1ncc2c(n1)CCCN(CC(=O)NCc1cccc(F)c1)C2=O | 0% |
| O=C(CCc1ccc2c(c1)CN(C(=O)CN1CCCC1=O)CCO2)NCC1CC1 | 13% |
| O=C(C1CC1)N1CCN(C(=O)N2CC3CC(C2)[C@H]2CCCC(=O)N2C3)CC1 (some centres not stated) | 2% |
| COCCNc1nc(C)nc2c1CCN(Cc1ccccc1C#N)CC2 | -4% |
| Cn1ccnc1C(=O)NCC1CCCCC(=O)N1 (configuration not stated) | 3% |
| Cc1ccc(S(=O)(=O)NC[C@H]2OC[C@@H](NCC(C)(C)C)[C@@H]2O)cc1 | 6%[70.6 µM] |
| COc1ccc(CN2CCN3C(=O)N(Cc4ccc(OC)cc4)C[C@H]3C2)cc1 | 14µM* |
| Cc1cc(C(=O)N2CCCC2c2nc(CCOCC3CCCC3)no2)nn1C (configuration not stated) | 5% |
| CSCc1ccc(C(=O)N2CCN(c3ccc(C)cc3)C(=O)C2)o1 | 0% |
| Cc1nn(CC(=O)NCCN2CCOC2=O)c(=O)n1CCc1ccccc1 | 0% |
| CC(C)c1ccc(-n2cc(CN3CCCC4(C3)CN(C)C(=O)O4)cn2)cc1 (configuration not stated) | -24% |
| COc1ccc(CNC(=O)c2c(C)noc2-c2ccc(OC(F)(F)F)cc2)cc1 | -10% |
| Fc1cccc(-c2noc(-c3nc(-c4ccc5c(c4)OCO5)no3)n2)c1 | -1% |
| Cc1n[nH]c(C)c1Cc1ccc(C(=O)NCC2Cn3cccc3CN2C)o1 (configuration not stated) | 3% |
| O=C(CCC1CCN(S(=O)(=O)c2ccccc2)CC1)NCC1CCCCC1 | -13% |
| N#Cc1ccc(C(=O)N2CCCCCCNC(=O)[C@@H]3C[C@@H](c4nc(-c5cnccn5)no4)C[C@@H]32)cc1 | 2% |
| COC1CCOC2(CCN(C(=O)c3ccsc3)CC2)C1 (configuration not stated) | -2% |
| COCc1cc(=O)n(CC(=O)Nc2ccc(C)c(Cl)c2)c(N2CCOCC2)n1 | -14% |
| O=C1CCCN1CCCN1C(=O)[C@@H]2C[C@@H](O)CN2C2(CN(CC3CC3)C2)C1=O | 4%[70.6 µM] |
| CC1=C[C@@H](CN2CCOCC2)[C@H](C(C)C)C[C@H]1Cc1nnc(-c2ccccc2F)o1 | -20%[70.6 µM] |
| CS(=O)(=O)NC[C@H]1O[C@@H](CC(=O)N2CCN(c3ccccn3)CC2)[C@H](O)[C@@H]1O | 4%[70.6 µM] |

Next part.
| structure | NPR1 antag |
| --- | --- |
| CC(=O)Nc1cccc(-c2cc3c(ccn3C)c(C(=O)NCCc3cnc[nH]3)n2)c1 | 1%[70.6 µM] |
| O=C(N[C@@H]1CN(Cc2c(F)cccc2F)C[C@H]1CO)c1ccccc1 | -2% |
| Cc1noc2c(-c3cccc(CO)c3)cc(-c3ccccc3)nc12 | 3%[70.6 µM] |
| CCC1Oc2ccc(NC(=O)c3cccc(OC)c3)cc2CN(Cc2ccccc2)C1=O (configuration not stated) | -23% |
| COc1ccc2[nH]c3c(c2c1)CCNC31CCN(C(=O)NC(C)(C)C)CC1 | 10% |
| Cn1c(Cn2ccnc2)nnc1C1CCCN(CCOCc2ccccc2)C1 (configuration not stated) | 8% |
| CCOCCOC1CCN(C(=O)Nc2cccc(F)c2)CC1 | -1% |
| COc1ccc(NC(=O)c2ccc3c(c2)OCC(=O)N(C)C3)c(F)c1 | 5%[70.6 µM] |
| Cc1noc(-c2cn(C3CCCN(C(=O)c4ccc(F)c(Cl)c4)C3)nn2)n1 (configuration not stated) | 0% |
| Cc1ccc(F)c(OC2(C(=O)O)CCN(S(=O)(=O)c3cnn(C)c3)CC2)c1 | 16% |

A different layout for some results above.
canonical_smiles: Cn1c(Cn2ccnc2)nnc1C1CCCN(CCOCc2ccccc2)C1 (configuration not stated)
  NPR1 antag: 8%
canonical_smiles: CCOCCOC1CCN(C(=O)Nc2cccc(F)c2)CC1
  NPR1 antag: -1%
canonical_smiles: COc1ccc(NC(=O)c2ccc3c(c2)OCC(=O)N(C)C3)c(F)c1
  NPR1 antag: 5%[70.6 µM]
canonical_smiles: Cc1noc(-c2cn(C3CCCN(C(=O)c4ccc(F)c(Cl)c4)C3)nn2)n1 (configuration not stated)
  NPR1 antag: 0%

More results follow:
| structure | NPR1 antag |
| --- | --- |
| Cc1ccncc1C(=O)N1CCC(N2CC(OCC3CC3)C23CCCCC3)CC1 (configuration not stated) | 0% |
| COc1ccc(CNC(=O)[C@H]2O[C@H](CCN3CCN(c4ccccn4)CC3)CC[C@@H]2O)cc1 | 0% |
| CCOCC1(C)COc2ccc(C(=O)NCCc3ccccc3)cc2N1 (configuration not stated) | -5%[70.6 µM] |
| COc1ccc(-n2nc(C)c(CCC(=O)N3CCOCC3)c2Oc2ccccc2F)cc1 | 3% |
| Cc1cccc(S(=O)(=O)N2CCCC(Cn3c(C4CC4)nc4cccnc43)C2)c1 (configuration not stated) | -15% |
| CCCc1noc(-c2ccn3c(CNC(=O)c4ccc(OC)cc4)nnc3c2)n1 | -10% |
| COc1ccc(C(=O)N2CCN(Cc3ccccc3)CC(O)C2)c(OC)n1 (configuration not stated) | 0% |
| Cc1ccc(CN2C[C@H]3CN(C(=O)c4ccc5c(c4)OCO5)CCN3C2=O)cc1 | -2%[70.6 µM] |
| COc1ccccc1NC(=O)c1cc2c(n1C)CCN(Cc1cccc(C)c1)C2 | 0% |
| O=C1NCN(Cc2ccc(Cl)cc2)C12CCN(Cc1cccc(C(F)(F)F)c1)CC2 | 10% |
| Cc1ccc(Cn2c(C3CCN(C(=O)c4ccc(C)c(C)c4)CC3)n[nH]c2=O)cc1 | -16% |
| Cc1cc(C)c(CNC(=O)c2cc(-c3ccccc3F)cc3c2OCCN3C(C)C)c(=O)[nH]1 | 1% |
| Cc1oc(-c2cccc(C(F)(F)F)c2)nc1CN1CCN(C)C(CCO)C1 (configuration not stated) | 3% |
| c1cnc(-c2nc(CNc3ncncn3)cs2)cn1 | 4% |
| O=C(Nc1cccc(-c2nnc3n2CCCC3)c1)C1CCC1 | 1% |
| CC1CCC2(CC1)OCC(C(=O)NCC1CCCO1)N2C(=O)c1ccc(Cl)c(Cl)c1 (configuration not stated) | -4% |
| COc1cccc(CCN2CC[C@H]3CN(C(=O)COc4ccccc4)CC[C@H]3CC2=O)c1OC | -6% |
| CSc1ccc(CNC(=O)c2cc3c(s2)CCN(C(=O)c2ccccc2)C3)cc1 | ? |
| Cn1cccc1C(=O)N1CCC(Cc2nc(C3CC3)n[nH]2)C1 (configuration not stated) | 1% |
| COCCC(=O)N1[C@@H]2CC[C@H]1CC(NC(=O)c1cnc(C)cn1)C2 (some centres not stated) | 2% |
| CC(=O)N(C)Cc1ccc(-c2ccccc2)cc1 | 0%[70.6 µM] |
| Cn1cc(C2CC2)c2nc(COc3ccccc3)cn2c1=O | 6%[70.6 µM] |
| O=[S+]([O-])(Nc1cccnc1)c1ccc2c(c1)OCCN(CC1CCOCC1)C2 | -2%[70.6 µM] |
| COCc1cc(NCc2cccnc2Oc2cccc(C(F)(F)F)c2)ncn1 | -7% |
| COC(=O)[C@@H]1Cc2ncn(Cc3ccc(OC)cc3)c2CN1S(=O)(=O)c1ccccc1 | 3% |
| O=C(CC1CCCCC1)N1CCC2(CC1)NC(=O)N(c1ccc(F)cc1)N2 | -7% |
| COCc1cc(C[C@@H]2C[C@H](NC3CCC3)C2(C)C)no1 | -1%[70.6 µM] |
| O=C(NC1CCN(c2cc(-c3ccccc3)[nH]n2)CC1)c1ccc2ncccc2c1 | -25% |
| Cc1cc(N2CCC(NC(=O)c3ccc(N(C)C)cc3)C2=O)ccc1F (configuration not stated) | -1% |
| Cc1ccc(C)c(N2CCN(C(=O)c3cc4n(n3)CC(c3ccc(Cl)cc3)OC4)CC2)c1 (configuration not stated) | -20% |
| COc1ccc(-c2[nH]nc3ncc(C(=O)N4CCN(Cc5ccccc5)CC4)nc23)c(C)c1 | -13% |
| Cc1ccc(NC(=O)Cn2ccn3nc(-c4ccccc4)c(CO)c3c2=O)c(Cl)c1 | -3% |
| O=C(NC1CCN(c2cc(-c3ccc(F)cc3)[nH]n2)CC1)c1ccc(F)c(Cl)c1 | ? |
| COc1ccc(CCNC(=O)Cn2ccn3nc(-c4ccccc4)c(CO)c3c2=O)cc1OC | -7% |
| Cc1ccc(-n2nc3n(c2=O)CCN([S+](=O)([O-])c2cccs2)C3)cc1 | -1% |
| O=C(NCCN1CCOCC1)C1CN(S(=O)(=O)c2cccs2)CC12CCCCC2 (configuration not stated) | 4% |
| CC(=O)N1CCN(C(=O)c2ccc3c(c2)NC(C)(COc2cccnc2)CO3)CC1 (configuration not stated) | -5%[70.6 µM] |
| CN(C(=O)NCc1ccc(F)cc1)C1CCc2nn(CC3CC3)c(=O)n2CC1 (configuration not stated) | 0% |
| CCCN1C(=O)Cc2cc(C(=O)NCc3ccccc3F)ccc21 | -6% |
| O=C(CC1CCN(S(=O)(=O)c2ccc(F)c(F)c2)C1)NCc1ccccc1 (configuration not stated) | 7% |
| COc1ccc(CCC(=O)NCC(=O)N2CCCCCCNC(=O)CC2c2ccccc2)cc1 (configuration not stated) | 5% |
| CN(Cc1cc(C2CC2)n[nH]1)C(=O)c1ccccc1C1CCNC1 (configuration not stated) | -5% |
| Cc1cc(=O)n(CC(=O)Nc2ccccc2)c(N2CCc3ccccc3C2)n1 | -17% |
| CN(C)C(=O)c1cccnc1OC1CCN(C(=O)c2ccncc2)CC1 | -1% |
| O=C(NC1CC1)c1ccccc1OC1CN(Cc2ccncc2)C1 | 0% |
| CCOC(=O)CC1NCCNC1=O (configuration not stated) | -5% |
| COc1ccc(CNC(=O)c2cc3n(n2)CC(c2ccc4c(c2)OCO4)OC3)cc1OC (configuration not stated) | -19% |
| c1ccc(-c2nc3ccncc3[nH]2)cc1 | -13%[70.6 µM] |
| COCC1CN(S(=O)(=O)Cc2ccccc2)CC12CCNCC2 (configuration not stated) | -7% |

Exported as labelled records: part of the list above.
SMILES: O=C(NC1CC1)c1ccccc1OC1CN(Cc2ccncc2)C1
- NPR1 antag: 0%

SMILES: CCOC(=O)CC1NCCNC1=O (configuration not stated)
- NPR1 antag: -5%
